Assay outcomes (PubChem BioAssay)
Tgondii IFNg – T. gondii growth inhibition with IFN-gamma, primary screen, cell-based. Toxoplasma gondii growth in IFN-gamma-treated host cells; active compounds read low; reference of the scale not given here. activity change, negative = inhibition, %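 (about 20 µM by stock and volumes)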. actives 3.8% (n = 69,000). AID 1259416, 2018;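 active means below -70%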;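 further: host cells are HeLa cells infected with Toxoplasma gondii; parasite growth read as luciferase light; one replicate is shown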
The depositor's hits bear a star; & = joins results of further samples; ! = repeats disagree.

canonical_smiles	Tgondii IFNg
Cn1cc(-c2ccncc2)c(-c2ccc(OCc3ccc4ccccc4n3)cc2)n1	-77.6*
CC1=C(C(=O)NCc2ccc(Cl)cc2)C2(CCN(S(C)(=O)=O)CC2)OC1=O	-1.1
Cc1cc(C(F)(F)F)cc(-c2cccc(O)c2)n1	-37.5
COC(=O)C[C@@H]1CC[C@H]2[C@H](COc3ccc(NC(=O)Nc4c(C)noc4C)cc3C(=O)N2C)O1	12.3
O=C1NCC2=C1C(c1ccccc1)Nc1ccccc1N2 (stereo not drawn)	68.2
CN(Cc1ccno1)C(=O)c1cccc(CC2CCNCC2)c1	6.1
O=C(NCc1ccc(CN2CCOCC2)cc1)c1ccc(Oc2ncccn2)cc1	19.0
O=C(CCC(=O)NC(c1cccnc1)C(F)(F)F)NC1CCCC1 (stereo not drawn)	11.8
C=CCN1C(=O)CCCC12CCCN(C(=O)c1ccc3ccccc3n1)C2 (stereo not drawn)	-38.0
CCOc1ccc(-c2nc(CSc3nc4c(=O)[nH]cnc4n3-c3ccccc3)c(C)o2)cc1OC	-21.9
Cc1noc(C)c1NC(=O)N(C)C[C@H]1Oc2ccc(NC(=O)Cc3cn(C)c4ccccc34)cc2CC(=O)N([C@@H](C)CO)C[C@@H]1C	-25.0
CN1CCc2onc(Cn3ccnc3)c2C1	39.2
CC(C)c1ccc(CCCC(=O)N2CCC3(CC2)CN(C)CCN3C)cc1	12.7
Cc1cnc(NCC2Cn3nnc(-c4ccnn4C)c3CO2)nc1 (stereo not drawn)	-0.4
Cc1nc(C23CC4CC(CC(C4)C2)C3)cs1	-20.6
CN(C)CCOCC1CN(Cc2cnn(C)c2)Cc2ccnn2C1 (stereo not drawn)	20.3

By substructure, the compounds so far with sulfur.
canonical_smiles	Tgondii IFNg
CC1=C(C(=O)NCc2ccc(Cl)cc2)C2(CCN(S(C)(=O)=O)CC2)OC1=O	-1.1
CCOc1ccc(-c2nc(CSc3nc4c(=O)[nH]cnc4n3-c3ccccc3)c(C)o2)cc1OC	-21.9
Cc1nc(C23CC4CC(CC(C4)C2)C3)cs1	-20.6

Continued:
canonical_smiles	Tgondii IFNg
Cc1[nH]cnc1-c1nccn1-c1ccc(Cl)cc1	28.7
Cc1cc(C(=O)Nc2cccc3c2O[C@@H](CN(C)C)[C@@H](C)CN([C@@H](C)CO)C3=O)n(C)n1	-42.1
O=C(c1ccc(F)cc1)N1C[C@H]2CN(c3ncccn3)C[C@@H]2C1	19.3
CC1=C(C(=O)Nc2ccc(Cl)cc2)C2(CCN(C(C)C)CC2)OC1=O	64.9
C=CCN(Cc1ccccc1OC)C(=O)c1ccc(NC(C)=O)cc1	4.9
CC(=O)Nc1ccc(C(=O)N(Cc2cccc(F)c2)C2(C(=O)NCc3ccccc3)CCN(C(C)=O)CC2)cc1	36.1
COCCN(C)C(=O)c1ccc2nnc3ncn(Cc4ccccc4)c3c2c1	74.4
O=C(Cc1cccc(F)c1)N1CCc2ncnc(NC3CC3)c2CC1	319.2
CN(Cc1sc(N(C)C)nc1Cl)Cc1cccc2ncccc12	7.8
CCc1nnsc1C(=O)NC(c1ccc(F)cc1)c1nccn1C (stereo not drawn)	-7.8
CC(C)c1ccc(NC(=O)Cn2c(=O)ccc3cc(S(=O)(=O)N4CCCC4)ccc32)cc1	-78.2*
Cc1ccc(-n2nnnc2SCC(=O)NC2CCCC2)cc1C	-22.5
Cc1ccc(N2CCOCC3(CCCN(S(C)(=O)=O)C3)C2)nn1 (stereo not drawn)	-4.8
CC(=O)N1CCC2(C=C(C(=O)Nc3cccc(C(N)=O)c3)c3ccccc3O2)CC1	-60.8
COCc1ncc(CN2CCC(O)(c3ccccc3C)C2)cn1 (stereo not drawn)	-49.8
Cc1nn(CC(=O)N(C)Cc2ccccc2)c(=O)c2nc(-c3ccccc3)sc12	-55.4
O=C(Nc1ccc(-c2nc(-c3ccccc3)co2)cc1)c1ccc(Cl)cc1	48.7
Cc1nc([C@H]2C[C@@H]3CCN(C(=O)Cc4cccc(F)c4)C[C@@H]3O2)n[nH]1	-0.5
O=C(O)c1oc(C(=O)O)c(OCc2ccccc2)c1OCc1ccccc1	-6.0
COc1cc(N2CCCC(N3CCCC3=O)C2)ncn1 (stereo not drawn)	-47.9
COc1ccc(NC(=O)Nc2cccc3c2O[C@@H](CN(C)Cc2ccc(C(=O)O)cc2)[C@H](C)CN([C@@H](C)CO)C3=O)cc1	56.4
CN(Cc1ccccc1C(F)(F)F)C(=O)CCNS(C)(=O)=O	0.8
CCOc1ncccc1-c1noc(CN2CCOCC2)n1	15.8
COc1ccc(C(=O)NCCc2csc(-c3ccc(Cl)cc3)n2)cc1OC	15.5
COCC(=O)Nc1cccc(-n2ccc(-c3cccnc3)n2)c1	33.8
CCN1CCC2(CC1)OC(=O)C(C)=C2C(=O)NCCN1CCCCC1C (stereo not drawn)	30.9
CC(C)C(=O)N1CCCC12CCCN(C(=O)c1ccno1)C2 (stereo not drawn)	-0.8
CN(C)CCN1C(=O)CC2(CCN(c3ncccn3)CC2)c2ccccc21	-2.6
CCCNC(=O)N1CC2(CCN(S(=O)(=O)c3ccccc3)CC2)c2c(n(C)c3cc(OC)ccc23)[C@H]1CO	-57.7
COc1ccc(C)cc1NC(=O)Cn1c(=O)cc(C(=O)N2CCCC2)c2ccccc21	4.6
CC(=O)C(C#N)C(=O)Nc1cc(Br)ccc1Br (stereo not drawn)	23.2&-15.5
Cc1nc(C)c(C(=O)N(c2ccccc2)C(C(=O)NC2CCCC2)c2ccccc2)s1 (stereo not drawn)	14.4
Cc1ccc2nc(C)c(C(=O)N3CCCN(c4ccncc4C)CC3)n2c1	7.3
C[C@H]1CN([C@@H](C)CO)C(=O)c2ccccc2-c2ccccc2CO[C@@H]1CN(C)C(=O)Nc1cccc(C(F)(F)F)c1	-36.3
O=C(Nc1ccccc1)c1c(O)c2cccnc2n(-c2cccc(F)c2)c1=O	49.1
O=C(Cn1c(=O)cc(C(=O)N2CCCC2)c2ccccc21)Nc1ccccc1F	4.8
CCC(CC)C(=O)Nc1nnc(-c2cccs2)s1	-13.4
COc1cc(OC)cc(-c2noc(-c3c(O)c4ccccc4n(C)c3=O)n2)c1	96.3
COc1ncccc1C(=O)Nc1cnc2n1CCCC2	-5.3
Cc1cnc(CNC(=O)c2c(=O)c3ccc(N4CCCN(C)CC4)nc3n3c2sc2ccccc23)cn1	-81.2*
O[C@@H]1CN(Cc2cc3n(n2)CCNC3)CC[C@H]1c1ccc2ccccc2c1	-0.2
CNC[C@H]1Oc2ccc(NC(=O)NC3CCCCC3)cc2CC(=O)N([C@H](C)CO)C[C@H]1C	-3.5
Cn1nc(CC(=O)Nc2cccc(Cl)c2)c2ccccc2c1=O	-79.0*
COc1cccc(-c2nnn(CC(=O)NC3CCOc4ccccc43)n2)c1 (stereo not drawn)	18.6
Cc1oc(-c2ccccc2)nc1Cn1nnc(-c2nc(-c3ccc(Cl)c(F)c3)no2)c1C	12.8
Cn1cnnc1SCC(=O)N1c2ccccc2CCc2ccccc21	-20.8
NCCc1nc(NCCN2CCCCC2CO)c2ccccc2n1 (stereo not drawn)	11.7
COc1cccc(NC(=O)Nc2ccc(-c3nc(-c4ccc(C)cc4)co3)cc2)c1	27.3
Cc1ccc(S(=O)(=O)N(C)c2cncc(C(=O)NCCCN3CCOCC3)c2)cc1	18.9
O=C(Cn1ncc2c(N3CCCC3)ncnc21)Nc1cc(F)cc(F)c1	-54.1
Cc1cc(F)ccc1NC(=O)CNCCCC1CCOC1 (stereo not drawn)	-2.2
CCCC#Cc1ccc2c(c1)O[C@H](CN(C)Cc1ccccn1)[C@H](C)CN([C@H](C)CO)S2(=O)=O	-34.1
COCC(=O)N(C[C@@H]1[C@@H](c2ccccc2)[C@@H](CO)N1C(=O)NC(C)C)C(C)C	9.1
COCC1CN(C(=O)c2ccnnc2)Cc2cnn(C)c21 (stereo not drawn)	5.9
CC(C)n1cnc2c1C(C(=O)Cc1ccncc1)N(C(=O)c1cccnc1)CC2 (stereo not drawn)	-8.6
CNC[C@H]1OCCCC[C@@H](C)Oc2ccc(NC(=O)Nc3ccc(OC)cc3)cc2C(=O)N([C@@H](C)CO)C[C@H]1C	449.5

(next part)
canonical_smiles	Tgondii IFNg
S=C1SCN(Cc2ccco2)CN1Cc1ccco1	52.8
C=CCOCc1nn(C(C)C)c2c1CCN(c1nccs1)C2	-9.8
Cc1ccn(CCNC(=O)CCN2Cc3ccccc3C2=O)n1	59.2
COc1ccc(OC)c(NC(=O)N2CCCCC2CN2CCOCC2)c1 (stereo not drawn)	6.0
COc1cccc(C(=O)Nc2ccc(-c3nc(-c4cc(C)ccc4C)co3)cc2)c1	-41.4
COc1ccc(C)cc1N1CC(C(=O)NCCc2nc3cc(C)c(C)cc3[nH]2)CC1=O (stereo not drawn)	6.8
C=CCN1CCN(C(C)C)C(=O)C12CCN(c1cnccn1)C2 (stereo not drawn)	1.3
CSc1ccc(C2c3[nH]c4ccccc4c3CCN2C(=O)c2cccc(F)c2)cc1 (stereo not drawn)	14.8

Next entries:
| smiles | Tgondii IFNg |
| --- | --- |
| Cc1[nH]cnc1-c1nccn1C(C)Cn1ccc2ccccc21 (stereo not drawn) | -1.6 |
| CS(=O)(=O)CC(=O)N1CCC2OCCCC2(COCC2CC2)C1 (stereo not drawn) | 34.4 |
| CNC(=O)COc1ccc(-c2ccccc2Cl)cc1 | 181.0 |
| O=S(=O)(c1ccc2c(c1)CCCC2)N1CCC2(CC1)NCCN=C2NCc1cc(F)cc(F)c1 | -43.1 |
| Cc1nc2n(n1)C(C(=O)Nc1cccc(Cl)c1C)CC(=O)N2 (stereo not drawn) | 21.6 |
| COc1cccc2c1OCC(C(=O)N1CCc3ccccc3C1)C2 (stereo not drawn) | -3.4 |
| C[C@H](CO)N1C[C@H](C)[C@H](CN(C)C(=O)Nc2cccc3ccccc23)Oc2c(NC(=O)C3CCOCC3)cccc2C1=O | 11.3 |
| Cc1ccc(CNC(=O)N2CCC3(CC2)CC(=O)c2ccccc2O3)cc1 | 3.4 |
| C=CCOc1ccccc1C(=O)N1CC[C@H](O)[C@@H](O)C1 | 3.1 |
| COc1cc(N2CCC3(CC2)OCC(=O)NC3C)ncn1 (stereo not drawn) | -1.0 |
| Cc1nnc(CN2CCCC(CCc3ccccc3C(F)(F)F)C2)o1 (stereo not drawn) | 2.5 |
| O=C(Cn1c(=O)ccc2cc(S(=O)(=O)N3CCCC3)ccc21)N1CCN(c2ccccc2)CC1 | 85.5 |
| CCc1cc(C2CCCN2C(=O)Cn2nc(C(F)(F)F)cc2C)on1 (stereo not drawn) | 0.5 |
| CC(C)c1nnsc1CNC1CCC2(CCNCC2)CC1 | 2.8 |
| CCn1ccnc1CN1CCN(Cc2ccc(F)cc2)C(=O)C1 | -9.4 |
| O=[N+]([O-])c1cc(Cl)ccc1S(=O)(=O)N1CCN(Cc2ccccc2)CC1 | 13.7 |
| C/C=C/c1ccc(C2[C@@H]3CN(C(=O)Nc4ccc(C(F)(F)F)cc4)C[C@H]2N3)cc1 (stereo partly drawn) | -79.5*! |
| CCN(CC)C(=O)C1Cn2ccnc2C2(CCN(CC3CCOCC3)CC2)O1 (stereo not drawn) | 5.3 |
| CC(=O)Nc1ccc(S(=O)(=O)Nc2onc(C)c2C)cc1 | 10.5 |
| COc1ccc(-c2nc(CC(=O)Nc3cc(Cl)ccc3C)no2)cc1 | 29.9 |
| Cc1cc(CN2CCC3(CC2)C(=O)NCCN3CC2CC2)oc1C | -12.2 |
| O=C1CCC(=O)N1CC(O)CCOc1ccc(OCCC(O)CN2C(=O)CCC2=O)cc1 (stereo not drawn) | -1.7 |
| Cn1ncc2c3ccccc3n(CC(=O)NCCN3CCCC3)c2c1=O | 2.5 |
| COc1ccc(CC(=O)Nc2ccc(-c3nc(Cn4nc(C)cc4C)c(C)o3)cc2)cc1 | -32.9 |
| COc1ccccc1-c1coc2cc(OS(C)(=O)=O)ccc2c1=O | 100.6 |
| COc1ccc(-c2ccccc2-c2nnc(C)o2)cn1 | 4.9 |
| O=C(NCc1cc(=O)n2c(n1)CNCCC2)c1ccsc1 | -2.7 |
| O=C(c1ccccc1)N1CCS(=O)(=O)[C@H]2CCN(Cc3ccc(F)cc3)CC[C@@H]21 | -2.0 |
| O=C(c1ccccc1Cl)N1CCC2(CC1)Nc1cc(F)ccc1-n1cccc12 | 50.3 |
| COCCN1C(=O)CCc2cc(NS(=O)(=O)c3cc(Cl)ccc3OC)ccc21 | 3.7 |
| Cc1nc(CN2C[C@H]3CN(CC4CC4)C(=O)[C@@H]3C2)cs1 | 235.1 |
| CS(=O)(=O)N1CCCC1c1cccc(Nc2nccs2)n1 (stereo not drawn) | -21.8 |
| O=C(O)c1cccnc1CN1CCC[C@H]1CN1CCCC1 | 9.3 |
| CCNC(=O)c1cc2c(c(-c3cccc(-c4cccc(C(=O)N(C)C)c4)c3)n1)[C@H](CCO)N([S@@](=O)C(C)(C)C)C2 | -31.4 |
| CC(C)N1CCNC(=O)C1CC(=O)NCc1nnc2n1CCCCC2 (stereo not drawn) | -1.1 |
| C[C@@H]1CN([C@H](C)CO)C(=O)c2cccc(NC(=O)Nc3ccc(C(F)(F)F)cc3)c2O[C@@H]1CN(C)S(=O)(=O)c1cn(C)cn1 | -4.9 |
| Cc1noc(C)c1CC(=O)Nc1ccccc1Oc1ccc(F)cc1 | 53.8 |
| CCc1ccc(NC(=O)C2=C(C)C(=O)OC23CCN(S(=O)(=O)CC)CC3)cc1 | 67.7 |
| CCn1cnc2cc(NC(=O)C(C)N3C(=O)C4C5C=CC(C5)C4C3=O)ccc21 (stereo not drawn) | 19.4 |
| COc1ccccc1-n1c(=O)n(Cc2nc(-c3cccc(C)c3)oc2C)c(=O)c2cccnc21 | 14.2 |

Gathered by group: the compounds so far containing an NH in an aromatic ring (6)
| smiles | Tgondii IFNg |
| --- | --- |
| CCOc1ccc(-c2nc(CSc3nc4c(=O)[nH]cnc4n3-c3ccccc3)c(C)o2)cc1OC | -21.9 |
| Cc1[nH]cnc1-c1nccn1-c1ccc(Cl)cc1 | 28.7 |
| Cc1nc([C@H]2C[C@@H]3CCN(C(=O)Cc4cccc(F)c4)C[C@@H]3O2)n[nH]1 | -0.5 |
| COc1ccc(C)cc1N1CC(C(=O)NCCc2nc3cc(C)c(C)cc3[nH]2)CC1=O (stereo not drawn) | 6.8 |
| CSc1ccc(C2c3[nH]c4ccccc4c3CCN2C(=O)c2cccc(F)c2)cc1 (stereo not drawn) | 14.8 |
| Cc1[nH]cnc1-c1nccn1C(C)Cn1ccc2ccccc21 (stereo not drawn) | -1.6 |

Some of the compounds tested (hit frequency here may not be typical).
